# ALR inh: human ALR oxidase inhibition via reduced H2O2. P55789. purified ALR, DTT oxidation, H2O2 HRP-luminol luminescence. inhibition, % (no concentration beside the values). actives 3.8% (n = 290,000). AID 485317;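 active = mean and each replicate at 75% or more; inconclusive = only one of the two met; inactive = neither met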;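 also: stock transfer was 7.5 nL into about 7.5 µL; 0% = neutral wells and 100% = wells with inactivated enzyme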
# Beta2AR agonist: agonists of human beta-2 adrenergic receptor inducing internalization; actives 0.43% (n = 340,000); response, % (no concentration beside the values); Am2.2-beta2AR cells, FAP receptor internalization, flow cytometry; reference of the scale not given here; P07550;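 active = response above a set limit, near 3 SD of response in nonfluorescent compounds, cut at about 42% in these data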;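 also: stock transfer was 100 nL into about 11 µL; a reference agonist was the positive control; negative values mostly stem from fluorescent compounds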
# Calb FLC: affects C. albicans growth with fluconazole; C. albicans CaCi-2 (fluconazole-resistant clinical isolate) + fluconazole, Alamar Blue growth, 48 h; growth inhibition, % (concentration not given with the values); actives 0.57% (n = 300,000); AID 1979;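 active = most replicates above 75%; inconclusive = exactly half above 75%; inactive = most below 75%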;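 also: all wells also contain fluconazole at 8 µg/ml as a sub-toxic cotreatment; 0% = median of DMSO wells and 100% = median of geldanamycin control wells; wells of about 8 µL received 7.5 nL stock; the first replicate is given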
# RanGTP-Imp inh: inhibitors of RanGTP-importin-beta interaction, primary screen, biochemical, FRET, CFP-Ran, YFP-importin-beta, homogeneous; actives 1.1% (n = 300,000); cell-free CFP-Ran/YFP-importin-beta FRET ratio; AID 2216; inhibition, % (no concentration beside the values);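 active = most replicates above 15%; inconclusive = exactly half above 15%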;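 also: 0% = DMSO wells and 100% = Ran loaded with GDP instead of GTP; wells of about 40 µL received 100 nL stock; the first replicate is given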
# Vif A3G: inhibitors of Vif binding to APOBEC3G peptide, primary screen, biochemical, TR-FRET, GST-Vif 1-94, biotin-A3G peptide, dose response retest (AID 1117319); TR-FRET GST-Vif / biotin-A3G peptide binding; higher % means a stronger effect; test concentration not given here; strong numbers were not always called active; one-dose inhibition, %; IC50 in µM for titrated hits; actives 0.57% (n = 260,000);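 active = above the screen mean plus three standard deviations and confirmed in dose response; inconclusive = results disagree or hit not tested in dose response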;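 also: Vif residues 1-94 fused to GST binding biotinylated APOBEC3G peptide 110-148; 0% = full assay without inhibitor and 100% = GST in place of GST-Vif; retest series ran down from 100 µM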
# HNF4A DNA FP: change in binding of human HNF4 alpha to DNA. HNF4a-FITC DNA binding, fluorescence polarization, 1 h. actives 0.3% (n = 360,000). activity change, % at 10 µM. AID 1224865. P41235; in the data active = activity change above about 30%, passing the limit was not always enough;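 also: controls were the assay level and a saturating level of protein; the project sought stronger binding though the title names inhibitors; some compounds called inactive have numbers as strong as hits; positive values seem to mean higher polarization but the record does not say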
# LANA-H2A inh: blocks KSHV LANA binding to histone H2A/H2B; actives 0.6% (n = 320,000); inhibition, % (concentration not given with the values); cell-free LANA-H2A/H2B peptide, fluorescence polarization; Q9QR71; in the data active = inhibition mostly above about 10%, no sharp cut-off; inactive = mostly below about 6.7%;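 also: stock transfer was 7.5 nL into about 10 µL; 0% = median of vehicle wells and 100% = median of positive control wells; one replicate is shown; the record names a cut of 25% in any replicate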
# Target sequence (Q9QR71 whole entry, looked up): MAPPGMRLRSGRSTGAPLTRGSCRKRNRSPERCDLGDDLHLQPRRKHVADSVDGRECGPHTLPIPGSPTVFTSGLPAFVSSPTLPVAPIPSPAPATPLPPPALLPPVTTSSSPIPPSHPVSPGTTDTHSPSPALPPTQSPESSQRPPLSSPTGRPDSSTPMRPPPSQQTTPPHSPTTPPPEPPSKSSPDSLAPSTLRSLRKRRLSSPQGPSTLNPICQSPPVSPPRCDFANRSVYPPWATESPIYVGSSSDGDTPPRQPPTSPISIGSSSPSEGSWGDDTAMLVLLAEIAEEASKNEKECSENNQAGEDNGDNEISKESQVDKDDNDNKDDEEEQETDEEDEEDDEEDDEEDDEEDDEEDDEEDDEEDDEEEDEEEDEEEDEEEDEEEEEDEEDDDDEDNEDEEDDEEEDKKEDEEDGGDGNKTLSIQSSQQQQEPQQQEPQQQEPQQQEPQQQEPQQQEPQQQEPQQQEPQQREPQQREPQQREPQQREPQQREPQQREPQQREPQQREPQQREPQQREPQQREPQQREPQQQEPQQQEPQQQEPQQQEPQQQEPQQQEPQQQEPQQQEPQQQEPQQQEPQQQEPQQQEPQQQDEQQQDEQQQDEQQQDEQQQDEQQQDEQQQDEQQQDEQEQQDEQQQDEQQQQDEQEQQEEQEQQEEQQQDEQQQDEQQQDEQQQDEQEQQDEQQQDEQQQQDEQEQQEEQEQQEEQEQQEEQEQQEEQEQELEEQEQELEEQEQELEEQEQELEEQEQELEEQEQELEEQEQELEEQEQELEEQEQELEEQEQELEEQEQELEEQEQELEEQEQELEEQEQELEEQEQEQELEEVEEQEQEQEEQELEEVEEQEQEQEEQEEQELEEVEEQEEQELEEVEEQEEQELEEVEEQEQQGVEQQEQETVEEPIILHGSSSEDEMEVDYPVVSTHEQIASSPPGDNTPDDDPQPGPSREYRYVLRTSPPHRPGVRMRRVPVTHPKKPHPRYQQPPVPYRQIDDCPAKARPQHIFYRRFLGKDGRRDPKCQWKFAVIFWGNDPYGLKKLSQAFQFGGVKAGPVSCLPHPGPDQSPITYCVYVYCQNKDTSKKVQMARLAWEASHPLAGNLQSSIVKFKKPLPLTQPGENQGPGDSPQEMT
# Active calls of the source: *; ? = inconclusive; / = not tested or not shown; + = active, no number; & = joins results of further samples.
SMILES,ALR inh,Beta2AR agonist,Calb FLC,RanGTP-Imp inh,Vif A3G,HNF4A DNA FP,LANA-H2A inh
CCCn1c(/N=C/c2c[nH]c3ccccc23)nc2ccccc21,5.0,6.8,28.7,3.0,3.3%,2.6,-7.8
CCOc1ccc(N=NC2C(=O)N(C(N)=S)N=C2C)cc1 (stereo not given),43.2,0.6,3.6,-0.2,/,7.9,3.5
O=C(Nc1csc(Cc2c(Cl)cccc2Cl)n1)NN1CCOCC1,/,-7.5,12.3,3.9,0.4%,0.9,-0.1
COc1ccc(CN2CCN(Cc3cccn3-c3ncccn3)CC2CCO)c(C)c1C (stereo not given),-4.8,0.4,18.7,-0.7,16.7%,0.8,-4.4
Cc1ccc(NC(=O)CSC2=C(C#N)C(c3ccco3)C3=C(CC(C)(C)CC3=O)N2)cc1 (stereo not given),98.3*,7.0,8.2,1.5,0.8%,1.4,2.0
CCOC(=O)C1CCCN(c2nc3ccccc3nc2C(C#N)C(=O)OCCOC)C1 (stereo not given),0.2,-4.5,-11.3,5.5,-7.9%&14.2%,2.5,20.3*
COc1ccc(N(C(C)=O)S(=O)(=O)c2cccc3cccnc23)cc1,-23.1,2.9,-0.4,0.2,10.1%,0.7,-1.2
C=CCn1cc(C(=O)NCc2ccc3c(c2)OCO3)c(=O)c2cc(S(=O)(=O)N(CC)CC)ccc21,/,-6.0,5.8,3.3,-12.5%,1.8,/
CCCn1c(SCc2nc(N)nc(N3CCCCC3)n2)nc2c1c(=O)n(C)c(=O)n2C,2.5,-2.0,-4.8,0.8,5.3%,-1.4,3.0
CCCCc1ccc(NC(=O)CSc2nnc(CNC(=O)c3ccco3)o2)cc1,-2.2,2.5,25.7,3.6,/,0.2,2.9
CCOc1cc(/C=C2\SC(=Nc3ccc(CC)cc3)NC2=O)ccc1OCC(=O)O,/,12.4,-3.3,5.5,8.2%,5.0,-2.4
COCCNc1nc(CSc2ccccc2)nc2sc(C)c(C)c12,-1.4,-1.2,-8.4,-2.4,19.1%,-1.9,0.9
Cc1cccc(C(=O)NCCCNC(=O)c2cccnc2)c1,-7.3,1.9,-3.9,-2.6,/,1.8,0.9
O=C(N/C(=C\c1ccccc1)C(=O)N1CCCCC1)c1ccco1,-2.1,-10.0,0.8,8.5,/,-0.6,-1.3
Nc1ccc(-c2cnc3ccccc3n2)cc1,-6.8,7.8,10.8,3.2,/,0.3,-6.1
O=C(N/N=C/c1cccc([N+](=O)[O-])c1)c1ccc(CN2CCOCC2)cc1,-1.9,-13.8,-12.9,-2.2,/,0.8,4.4
O=C(O)c1ccc2c(c1)N(Cc1ccccc1)C(=O)c1ccccc1S2=O (stereo not given),-1.6,2.3,0.0,-5.4,5.0%,3.5,-2.7
COCCNC(=O)C1CC(=O)N(C2CCCC2)C1 (stereo not given),3.4,-1.7,13.5,-0.5,-7.6%,-1.2,4.4
N#C/C(=C\c1ccc(N2CCCCC2)o1)C(=O)Nc1cccc(Br)c1,-6.2,-736.7,/,/,/,133.1,0.8
CC(C)OC(=O)Nc1ccc(-c2ccc(NC(=O)OC(C)C)cc2Cl)c(Cl)c1,/,-11.4,-5.7,0.7,0.9%,1.0,-0.1
COC(=O)CC#N,-2.2,-7.1,/,/,/,5.0,+
O=C(NCc1ccc(F)cc1)c1cc(-c2ccncc2)nc2ccccc12,-1.6,-11.4,-1.3,?,-3.9%,0.2,6.1
COc1cccc(CNS(=O)(=O)c2c(C(=O)N3CCCCCC3)c(C)n(C)c2C)c1,-2.3,3.2,-0.4,0.2,/,2.8,-4.7
Cn1c(N)c(C(=O)COC(=O)c2ccccc2C(=O)c2ccc(Cl)cc2)c(=O)n(C)c1=O,4.2,-1.8,/,/,-3.2%,-0.1,-4.1
CC(C)Nc1ncnc2c1cnn2Cc1ccc(Cl)cc1,1.5,-1.3,-6.1,-1.5,-0.4%,1.5,-11.2

# Quoted from the listing:
# CCCn1c(/N=C/c2c[nH]c3ccccc23)nc2ccccc21 – Beta2AR agonist = 6.8
# COc1ccc(N(C(C)=O)S(=O)(=O)c2cccc3cccnc23)cc1 – Vif A3G = 10.1%
# O=C(NCc1ccc(F)cc1)c1cc(-c2ccncc2)nc2ccccc12 – Vif A3G = -3.9%

# Other results.
SMILES,ALR inh,Beta2AR agonist,Calb FLC,RanGTP-Imp inh,Vif A3G,HNF4A DNA FP,LANA-H2A inh
CCOC(=O)c1sc(NC(=O)CSc2nnnn2-c2ccc(C)cc2)c(C(=O)OCC)c1C,-2.2,-5.3,-17.4,-0.7,-3.5%&-50.9%,12.9,3.3
CCOC(=O)N1CCN(C(=S)Nc2ccccc2C)CC1,0.7,-2.2,-0.7,1.4,-3.3%,1.4,-3.9
Cc1ccc(-c2nc(Nc3ccccc3)n[nH]2)cc1,2.0,-5.1,/,/,-0.4%,0.7,-2.6
NC(=O)c1ccsc1NC(=O)CN1C(=O)NC2(CCCCC2)C1=O,46.1,0.0,/,/,-1.9%,0.2,1.2
N/C(=N\OC(=O)c1ccc(Br)cc1)c1cccc([N+](=O)[O-])c1,-2.0,-3.8,-3.4,-4.0,/,-2.9,-3.7
COc1ccc(/C=N/n2c(=O)[nH]c3c([nH]c4ccc(Br)cc43)c2=O)cc1CN1CCOCC1,2.4,3.8,2.0,-2.5,-3.9%,0.2,1.4
CCC(C)c1ccccc1N1CC(C(=O)Nc2ccc(C)c(S(=O)(=O)N3CCOCC3)c2)CC1=O (stereo not given),-13.1,6.2,1.3,0.7,2.8%,1.1,1.7
COc1ccccc1-c1cc(C(=O)N2CCN(S(=O)(=O)c3ccc(C)cc3)CC2)[nH]n1,/,15.2,14.8,0.2,/,1.5,/
CNC(=S)N(CCc1c(C)[nH]c2ccc(C)cc12)Cc1ccco1,/,-1.4,17.1,-2.4,-2.6%,8.0,-2.5
O=CN1CCN(C(=O)c2ccccc2Cl)CC1,-1.7,-0.9,-0.3,-0.9,24.4%,-7.7,-10.5
COc1ccc(NC(=S)NCc2ccc3c(c2)cc(C)n3C)cc1,/,0.9,6.2,9.0,-4.3%,1.7,1.6
COc1cc2oc(=O)cc(-c3ccc(-c4ccc(CO)cc4)cc3)c2c(OC)c1OC,/,2.0,/,/,-5.4%,1.4,/
CC(=O)Nc1ccc(NC(=O)CSc2nnc(NC(=O)c3cccc(F)c3)s2)cc1,-0.7,1.7,/,/,2.2%,0.6,0.7
CCOC(=O)c1[nH]c(C)c(C(=O)NCc2ccc(OC)cc2)c1C,-2.4,-3.4,11.9,2.0,5.7%,0.3,9.5
CN=c1scc(C)n1/N=C/c1ccc(O)c(O)c1O,99.9*,69.0*,10.9,2.0,<1.84µM*,-3.9,6.6
Cn1ncc([N+](=O)[O-])c1C(=O)Nc1ccc(-c2ccccc2)cc1,-65.0,-0.2,3.9,2.5,/,4.3,1.0
COc1ccc(C(CCN2CCCC(C)C2)c2c(OC)cc(OC)c3c2OC(=O)CC3c2cc(OC)c(OC)c(OC)c2)cc1 (stereo not given),/,17.5,-8.3,-3.9,/,0.1,-4.4
CCOC(=S)SCC(=O)N1CCc2cc(OC)ccc2C1C1C(=O)CCCC1=O (stereo not given),32.9,2.5,6.4,4.7,6.4%,-2.3,1.1
COCCCNc1ncnc2c1cnn2-c1ccc(C)cc1C,-3.5,7.4,-14.7,2.3,?,-2.8,-1.7
CC1CCCN(S(=O)(=O)c2ccc([N+](=O)[O-])cc2)C1 (stereo not given),-13.4,19.9,-3.7,-3.3,/,-0.1,-0.9
Cc1ccc(NC(=O)C2CC(=O)N(c3ccc4c5c(cccc35)CC4)C2)cc1 (stereo not given),-4.7,2.9,-0.4,-5.2,-4.1%,1.9,-5.5
COc1c(CC=C(C)C)cc(C2CC(=O)c3c(O)cc(O)cc3O2)c(CC=C(C)C)c1O (stereo not given),-3.5,/,3.1,4.3,/,/,-3.1
CCOC(=O)c1cnn(-c2ccccc2)c1NC(=O)c1ccccc1,5.8,-3.0,24.5,-3.8,-0.5%,-0.8,-5.8
Cc1ccc(-c2nsc(SCC(=O)NCC3CCCO3)n2)cc1 (stereo not given),56.7,0.9,-9.4,-2.5,-3.5%,3.3,0.2
Oc1c(Br)cc(Br)cc1/C=N/N1CCN(Cc2ccccc2)CC1,/,4.3,/,/,0.6%,-1.4,5.6

# (continued)
SMILES,ALR inh,Beta2AR agonist,Calb FLC,RanGTP-Imp inh,Vif A3G,HNF4A DNA FP,LANA-H2A inh
CN(C)C(CNC(=O)c1cccc(S(=O)(=O)Nc2ccccc2Cl)c1)c1ccccc1 (stereo not given),/,1.5,/,/,0.5%,0.3,/
Cc1ccc(NC(=O)c2ccc3c(=O)n4c(nc3c2)CCC4)cc1F,-7.2,-10.3,/,/,/,-3.7,2.6
O=C(COC(=O)COc1ccc(Nc2ccccc2)cc1)NCc1ccco1,99.7*,-4.8,12.3,5.9,?,-0.9,-5.6
CCOc1cc(NC(=O)C2CCCCC2)c(OCC)cc1NC(=O)c1ccco1,-22.8,-11.7,-6.5,5.2,-5.4%,3.4,-2.7
Oc1ccc(Cl)cc1-c1cc(-c2ccccc2)n[nH]1,-3.2,9.7,7.4,5.7,>100µM*,2.1,1.4
Cc1cccc(N(C(=O)c2snc(C(N)=O)c2N)C(C(=O)NCc2ccccc2)c2ccncc2)c1 (stereo not given),-2.7,-2.3,2.1,1.9,/,3.8,-2.7
Fc1cccc(Cl)c1-c1nnc2ccc(N3CCOCC3)nn12,-12.8,5.4,-16.7,5.6,9.3%,-0.7,-0.1
CC(C)C(CCN1C(=O)c2ccccc2C1=O)c1ccco1 (stereo not given),90.0*,-7.0,-0.1,-1.3,?,-5.2,0.9
COc1ccc2cc(C(=O)NCc3ccccc3)c(=O)oc2c1,-6.0,1.8,3.7,1.1,/,-0.1,-7.2
C/C(CS(=O)(=O)c1ccc(Cl)cc1)=N/NC(N)=S,13.2,6.6,-2.1,-2.4,-2.9%,1.2,-1.2
O=C(CSc1nc2c(oc3ccccc32)c(=O)n1CC1CCCO1)NCc1ccc(F)cc1 (stereo not given),/,0.9,1.7,-2.1,-7.3%,0.1,/
O=C1CN(S(=O)(=O)c2cccc(Br)c2)CCN1,-2.0,5.7,/,/,-2.5%,-0.9,-10.2
C/C(=N\NC(=O)c1c(-c2ccccc2Cl)noc1C)c1cccc(NC(=O)C(C)C)c1,2.9,-7.8,-11.0,1.2,-5.8%,0.0,3.4
CCC(=O)c1ccc(OCC(O)CN(C)C2CCCCC2)cc1 (stereo not given),-1.3,9.5,1.2,0.5,3.3%,2.4,-2.8
O=C(NNC(=O)C(c1ccccc1)c1ccccc1)c1ccccn1,2.1,6.4,-61.2,-1.1,13.6%,-1.0,-0.3
COC(=O)C1CCN(CC(=O)N(C)c2c(N)n(Cc3ccccc3)c(=O)[nH]c2=O)CC1,/,-1.6,/,/,/,1.9,5.3
COc1cc(/C=N/O)ccc1Oc1ccc([N+](=O)[O-])cc1[N+](=O)[O-],45.9,-8.3,46.0,-1.5,-0.8%,2.0,-0.6

# Complete entries from above:
# CCOc1cc(NC(=O)C2CCCCC2)c(OCC)cc1NC(=O)c1ccco1 is entered as ALR inh = -22.8; Beta2AR agonist = -11.7; Calb FLC = -6.5; RanGTP-Imp inh = 5.2; Vif A3G = -5.4%; HNF4A DNA FP = 3.4; LANA-H2A inh = -2.7
# Cc1cccc(N(C(=O)c2snc(C(N)=O)c2N)C(C(=O)NCc2ccccc2)c2ccncc2)c1 (stereo not given) is entered as ALR inh = -2.7; Beta2AR agonist = -2.3; Calb FLC = 2.1; RanGTP-Imp inh = 1.9; Vif A3G = /; HNF4A DNA FP = 3.8; LANA-H2A inh = -2.7

# From PubChem BioAssay
